# Anaer choline gr = inhibitors of anaerobic choline-dependent gram-negative bacterial growth; Gram-negative bacterium anaerobic choline minimal medium, absorbance growth; active compounds read low; many inactives read as strong as hits in the columns shown; calls only; 0.2% of 55,000 active;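 active = growth z-score on choline under -2 at 7 or 20 h with little or no fall on glycerol, limits in tiers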;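 also: stock transfer was 300 nL into about 50 µL; the organism is E. coli; final concentration not given here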
# Anaer choline gr early = further read-out of Anaer choline gr, marked with its call; z-score; measured here: choline growth z-score, timepoint 1;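 score of optical density at 7 h as mean of two plates; lower means less growth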
# * = called active by the depositor; i = inactive; & = joins results of further samples.
SMILES,Anaer choline gr,Anaer choline gr early
Cc1ccc(CN2CCN(C3CCN(C(=O)C4CCCCC4)CC3)C(=O)C2=O)cc1,i,-0.48
CC(C)(C)c1csc(-c2csc(S(=O)(=O)N3CCCCCC3)c2)n1,i,-0.97
Cc1nnc2ccc(-n3ncc4c3NC(=O)CC4c3ccccc3OC(C)C)nn12 (stereo unspecified),i,-0.7
Cc1cc2c(cc1S(=O)(=O)N1CCC(C(=O)NCc3ccc(Cl)cc3)CC1)OCC(=O)N2,i,0.9
O=C(C1CC1)N1CCCC1c1nc2ccccc2s1 (stereo unspecified),i,0.13
COc1ccc(C2CCCN2C(=O)c2cc(C3CC3)on2)cc1 (stereo unspecified),i,-0.46
COc1ccc(NC(=O)Cc2nnc(SCc3ccccc3)n2-c2ccccc2)cc1,i,-0.44
O=C(CSc1nnc(-c2cc3ccccc3o2)n1-c1ccccc1)N1CCCCC1,i,1.11
CCc1ccccc1NC(=O)Cn1cc(-c2nc(-c3ccc(Cl)cc3)no2)c(=O)c2ccc(C)nc21,i,-0.2
O=C(NC1CCCCC1)C1CCN(c2cnc(N3CCCC3)nc2)CC1,i,0.22
O=c1ccc2cc(S(=O)(=O)N(CCc3ccncc3)CC3CCCO3)ccc2[nH]1 (stereo unspecified),i,-0.49
O=C(Cn1nc2c3scc(-c4ccc(F)cc4)c3ncn2c1=O)NCc1ccc(F)cc1,i,-0.49
COc1cc(OC)cc(-c2noc(CSc3ccc(-c4ccc(OC)c(OC)c4)nn3)n2)c1,i,-1.05
Cc1nc(N2CCOCC2)nc2oc(-c3ccccc3)nc12,i,0
Nc1nc2c(nc(Br)n2[C@@H]2O[C@@H]3COP(=O)(O)O[C@H]3[C@H]2O)c(=O)[nH]1,i,1.04
CCn1nnc2cc(C(=O)N(C)CC(=O)Nc3c(C)n(C)n(-c4ccccc4)c3=O)ccc21,i,-1.46
CC(C)c1cc(C2CCCN2S(=O)(=O)c2cccc3nsnc23)on1 (stereo unspecified),i,0.71
COC(=O)Cn1cnc2onc(-c3cccc(F)c3)c2c1=O,i,0.3
O=C1Nc2ccccc2Oc2ccc(S(=O)(=O)N3CCSCC3)cc21,i,-0.09
Cc1nc2c(-c3ccc(F)cc3)c(C)nn2c(C)c1CCC(=O)N1CCN(c2ccccn2)CC1,i,0.81
COCCNC(=O)c1ccc2c(=O)n(CC(C)C)c(SC(C)C(=O)c3ccc(C)c(C)c3)nc2c1 (stereo unspecified),i,2.61
COCc1cc(=O)n2c(n1)N(CC1CC1)CC2,i,0.16
CCOCCCNC(=O)CN1C(=O)c2c(c3ccccc3n2C)C1c1ccc(OC)cc1 (stereo unspecified),i,-0.02
CCCC(=O)N(c1ccc2oc(C)c(C(=O)OC)c2c1)S(=O)(=O)c1ccc(CC)cc1,i,-0.66
CCCCc1nn(-c2ccccc2C(F)(F)F)c(=O)n1Cc1ccc(-c2ccccc2S(=O)(=O)NC(=O)c2sccc2C)cc1,i,0.1
Cc1nc(-c2cc(S(=O)(=O)N3CCN(c4cccc(Cl)c4)CC3)c(C)s2)sc1C,i,0.25
CCOC(=O)c1cccc(NC(=O)C2CCCN(S(=O)(=O)c3cn(C)cn3)C2)c1 (stereo unspecified),i,0.35
O=C(OCC1COc2ccccc21)c1nc2ccccc2nc1Nc1cccc(F)c1 (stereo unspecified),i,-0.51
O=C(NCC(c1cccnc1)N1CCc2ccccc2C1)c1ccc(Br)cc1 (stereo unspecified),i,-0.18
CCc1onc(C)c1C1CCCN1Cc1ccc(OC)c(O)c1 (stereo unspecified),i,-1.28
O=C(NCc1ccncc1)C1CCN(c2ncnc3c2oc2ccccc23)CC1,i,0.86
CN1Cc2c(N)cccc2C(c2ccccc2)C1 (stereo unspecified),i,0.34&-0.65
O=C(NCCC1=CCCCC1)C1CCCN(c2ccnc(-c3cccc(F)c3)n2)C1 (stereo unspecified),i,0.28
O=C(Cn1nnnc1-c1ccccc1F)Nc1cccc2cccnc12,i,1.18
CC(=O)Nc1cccc(-c2nc(Cn3c(=O)oc4ccccc43)no2)c1C,i,-0.67
O=c1c2cnn(-c3ccc(Br)cc3)c2ncn1Cc1nc(-c2ccc(F)cc2)no1,i,-0.01
Cc1nn(C(=O)CC(C)C)c(C)c1S(=O)(=O)N1CCOCC1,i,0.54
O=S(=O)(Nc1ccc(-c2ccc(N3CCOCC3)nn2)cc1)c1ccccc1Cl,i,-0.54
Cc1ccc(NC(=O)C2CCN(c3nccn4nc(-c5ccc(F)cc5)cc34)CC2)cc1,i,0.5
COc1cccc(NS(=O)(=O)c2ccc3c(c2)NC(=O)C(CC(=O)N2CCCC2)CS3)c1 (stereo unspecified),i,-0.19

# Of the compounds above, 3 contain bromine:
SMILES,Anaer choline gr,Anaer choline gr early
Nc1nc2c(nc(Br)n2[C@@H]2O[C@@H]3COP(=O)(O)O[C@H]3[C@H]2O)c(=O)[nH]1,i,1.04
O=C(NCC(c1cccnc1)N1CCc2ccccc2C1)c1ccc(Br)cc1 (stereo unspecified),i,-0.18
O=c1c2cnn(-c3ccc(Br)cc3)c2ncn1Cc1nc(-c2ccc(F)cc2)no1,i,-0.01

# Remaining list, next part
SMILES,Anaer choline gr,Anaer choline gr early
O=C(Nc1ccccc1Cl)c1ccc(-n2nnc3cccnc32)cc1,i,0.65
COc1ccc(-c2nc(CSCC(=O)N3CCCC3)c(C)o2)cc1OC,i,0.36
Cc1sc(-c2cc(C(F)(F)F)on2)cc1S(=O)(=O)N(C)Cc1ccco1,i,1.71
COCCN(Cc1ccc(F)cc1)Cc1cc(=O)n2nc(C3CC3)sc2n1,i,-0.76
CCCCC(=O)N1CCC2(C1)C(=O)Nc1ccccc12 (stereo unspecified),i,-0.35
Cc1noc2c1C(c1cccc(Br)c1)C1=C(CC(c3ccccc3O)CC1=O)N2 (stereo unspecified),i,-0.62
CC(C)Cn1c(=O)c2sccc2n2c(SCc3ccccc3)nnc12,i,-0.22
Cc1cc(C)cc(NC(=O)N2CCCC2c2ccc(Cl)cc2)c1 (stereo unspecified),i,0.6
CCOC(=O)CNC(=O)N1CCC2(CC1)Nc1cc(F)ccc1-n1cccc12,i,-0.62
O=S(=O)(Cc1ccc(Cl)cc1)c1ccc(NC2CCCC2)nn1,i,-1.48
Cc1ccc(-c2nn3c(COc4ccc(Br)cc4)nnc3s2)cn1,i,-0.18
CCCCC[C@H](O)/C=C/[C@H]1[C@H](O)CC(=O)[C@@H]1C/C=C\CCCC(=O)NCCO,i,0.61
COc1ccc(NC(=O)c2nnc(C3CCN(C(=O)Nc4cc(C)ccc4C)CC3)s2)cc1,i,-0.27
CCc1nnc(-c2cc(S(=O)(=O)N3CCN(c4ccccn4)CC3)c[nH]2)o1,i,0.41
CCNc1nc(NCC)nc(-n2cnc(SC)n2)n1,i,0.62
COc1ccc(Cc2nn3c(-c4cccnc4)nnc3s2)cc1,i,-0.39
NS(=O)(=O)c1ccc(Nc2ccc3cc(S(=O)(=O)N4CCCC4)ccc3n2)cc1,i,1.46
Cc1cccc(C2CC(=O)Nc3c2c(C)nn3-c2ccc3nncn3n2)c1 (stereo unspecified),i,1.28
O=C(NC1CCCC1)C1CCCN(c2ccnc(-c3ccc(F)cc3)n2)C1 (stereo unspecified),i,-0.02
Fc1cc(F)cc(-c2noc3ncnc(N4CCCC4)c23)c1,i,-0.96
Cc1nn2c(C)c(C(=O)NC3CC3)cnc2c1-c1ccc(F)cc1,i,0.25
O=C(O)c1cc(N2CCC(N3CCCCC3)CC2)ccc1NC(=O)C1CCCC1,i,-0.22
Cc1cc(C)c2c(n1)sc1c(=O)n(CC(=O)NCc3ccc(Cl)cc3)cnc12,i,0.06
CC[C@H](C)[C@H]1O[C@]2(CC[C@@H]1C)C[C@@H]1C[C@@H](C/C=C(\C)[C@@H](O[C@H]3C[C@H](OC)[C@@H](O[C@H]4C[C@H](OC)[C@@H](O)[C@H](C)O4)[C@H](C)O3)[C@@H](C)/C=C/C=C3\CO[C@@H]4[C@H](O)C(C)=C[C@@H](C(=O)O1)[C@]34O)O2,i,0.58&0.58
O=C(c1ccccc1-c1nc(-c2ccc(Cl)cc2)no1)N1CCCC1,i,-0.87
CCn1cnc2cc(-c3noc(C(C)Oc4ccccc4)n3)ccc21 (stereo unspecified),i,-0.66
Cc1oc(-c2ccc(Cl)cc2)nc1CSc1nc(-c2cccnc2)cc(=O)[nH]1,i,-0.3
Cc1nc2cc(-c3noc(Cc4ccc(F)cc4)n3)ccc2o1,i,0.39
Nc1nc(-c2ccc(Cl)cc2)nn1C(=O)C1CC1,i,1.19
O=C(Oc1cccc(Br)c1)c1cc(-c2ccc3c(c2)OCCO3)on1,i,0.69
CC(C)n1cnc(S(=O)(=O)N2CCC(C(=O)Nc3ccc4c(c3)OCO4)CC2)c1,i,-0.23
Cc1ccc(/C=C/c2onc(C)c2S(=O)(=O)N2CCCC(C(=O)N3CCC(C)CC3)C2)cc1 (stereo unspecified),i,0.08
CCN(CC)C(=O)CN1C(=O)COc2ccc(C(=O)N3CCCC3)cc21,i,-0.29
CCCCC/C=C\CC(O)/C=C/c1cccc(CC(O)CCCCO)n1 (stereo unspecified),i,0.34
CCCn1c(Cn2ccnc2C)nc2cc(NC(C)=O)ccc21,i,-0.51
Cc1ccc(C(=O)NCC(=O)NCc2cscn2)cc1C,i,-0.09
COc1cccc(C(=O)N2CSC[C@@H]2C(=O)NCCc2cscn2)c1,i,-0.19
CS(=O)(=O)Nc1ccc(-c2noc(-c3ccc(Br)cc3)n2)cc1,i,-1.47
O=C(C1CC1)N1CCN(c2nc3cc(Br)ccc3n3cccc23)CC1,i,1.21
O=C(c1noc2ccc(S(=O)(=O)N3CCN(c4ccc(Cl)cc4)CC3)cc12)N1CCCC1,i,-0.24

# Quoted from the listing.
# CC(C)n1cnc(S(=O)(=O)N2CCC(C(=O)Nc3ccc4c(c3)OCO4)CC2)c1 | Anaer choline gr early = -0.23
# Nc1nc2c(nc(Br)n2[C@@H]2O[C@@H]3COP(=O)(O)O[C@H]3[C@H]2O)c(=O)[nH]1 | Anaer choline gr early = 1.04
# CC(C)(C)c1csc(-c2csc(S(=O)(=O)N3CCCCCC3)c2)n1 | Anaer choline gr early = -0.97
# COC(=O)Cn1cnc2onc(-c3cccc(F)c3)c2c1=O | Anaer choline gr early = 0.3

# Continuation:
SMILES,Anaer choline gr,Anaer choline gr early
Cc1ccnc(N2CCC(C(=O)NCCc3c[nH]c4ccccc34)CC2)n1,i,0.18
NCC1OC(O[C@@H]2[C@H](O)C(OC3C(O)C(N)CC(N)C3OC3OC(CO)C(O)C(O)C3N)O[C@@H]2CO)C(N)C(O)C1O (stereo partly specified),i,0.05
O=C(NC1CC1)C1CCCN(c2nnc3ccc(Cl)cn23)C1 (stereo unspecified),i,0.23
CCS(=O)(=O)Nc1ccc(C2(C(=O)N3CCN(CC(C)C)CC3)CCCCC2)cc1,i,-0.74
Cc1cccc(-c2cnc(N3CCC(C(=O)N4CCC(C)CC4)CC3)nc2)c1,i,-0.69
O=C(c1ccco1)N1CCN(S(=O)(=O)c2ccc(-c3cc(C(F)(F)F)on3)o2)CC1,i,-0.02
COc1cc(-c2nc3sccn3c2Nc2cccc(C)c2)ccc1O,i,0.74
CCOc1ccc(NS(=O)(=O)c2cc(C(=O)Nc3ccc(Br)cc3)n[nH]2)cc1,i,-1.13
CCOC(=O)C1CCN(C(=O)c2oc3ccc4c(c3c2C)C(=O)CC2(CCCCC2)O4)CC1,i,0.74
Cc1cc(C)n2ncc(C(=O)Nc3ccc4c(c3)OCCO4)c2n1,i,0.53
CC(C)CCn1c(=O)c2ccccc2n2c(=O)n(CC(=O)N3CCN(c4ccc(F)cc4)CC3)nc12,i,0.97
CC1COCCN1c1cc(C2(S(C)(=O)=O)CC2)nc(-c2cccc3[nH]ccc23)n1 (stereo unspecified),i,-0.14
CCCN(CCC(=O)N1CCNCC1)C(=O)c1ccc(Cl)cc1,i,-1.89
Cc1ccc(-c2c(C(F)(F)F)nn3c(N4CCOCC4)cc(C)nc23)cc1,i,-0.94
Cc1nc(-c2ccc(-c3noc(CNC(=O)c4ccccc4)n3)cc2)cs1,i,0.38
O=c1c(S(=O)(=O)c2ccc(F)c(Cl)c2)c[nH]c2cc(F)c(Cl)cc12,i,0.64
CCn1ccc2cc(S(=O)(=O)N3CCCC(C(=O)NCCCN4CCCC4=O)C3)ccc21 (stereo unspecified),i,0.27
CC(=O)Nc1ccc(NC(=O)c2ccc(=O)n(Cc3ccc(Cl)cc3)c2)cc1,i,-0.02
O=C(Nc1ccc(Br)cc1)c1cccc(Nc2ncc(-c3cccc(F)c3)cn2)c1,i,-0.2
CCCCNC(=O)c1ccc(-c2ccc(N3CCCC3)nn2)cc1,i,-1.14
NS(=O)(=O)c1ccc(NC(=O)C2(c3ccccc3)CCCC2)cc1,i,-0.54
Cc1nc2cc(-c3noc(-c4cccnc4)n3)ccc2o1,i,-1.34
CC1=C(C(=O)OC(C)C)C(c2cn(-c3ccccc3)nc2-c2ccc(Cl)cc2)NC(=O)N1C (stereo unspecified),i,-0.79
COc1ccc(C2C(C(=O)Nc3ccc(F)cc3)c3ccccc3C(=O)N2c2ccc(OC)cc2)cc1 (stereo unspecified),i,0.46
O=C(CN1C(=O)CC(c2ccc(F)cc2)=Nc2ccccc21)Nc1cc(F)ccc1F,i,-0.18
Cc1c(S(=O)(=O)NC2CC2)c(C)n(C)c1-c1nnc(C2CCC2)o1,i,0.54
CCCS(=O)(=O)N1CCC2(CC1)Nc1cc(F)ccc1-n1cccc12,i,-1.34
O=C(Nc1nc2ccccc2n1CCN1CCOCC1)c1ccc(Cl)cc1,i,0.83

# Record cards, from the list above.
# Entry for COc1ccc(C2C(C(=O)Nc3ccc(F)cc3)c3ccccc3C(=O)N2c2ccc(OC)cc2)cc1 (stereo unspecified) = Anaer choline gr: i; Anaer choline gr early: 0.46
# Entry for CC1=C(C(=O)OC(C)C)C(c2cn(-c3ccccc3)nc2-c2ccc(Cl)cc2)NC(=O)N1C (stereo unspecified) = Anaer choline gr: i; Anaer choline gr early: -0.79
# Entry for Cc1nc2cc(-c3noc(-c4cccnc4)n3)ccc2o1 = Anaer choline gr: i; Anaer choline gr early: -1.34

# From PubChem

# Only part of the results is shown (hit frequency here may not be typical).
